Screening results: PubChem BioAssay, several laboratories
LYP phosphatase – inhibition of human PTPN22 tyrosine phosphatase – biochemical, DiFMUP fluorescence, recombinant catalytic domain, 10 µM, primary screen (AID 606); recombinant LYP catalytic domain, DiFMUP fluorescence; higher % means a stronger effect; inhibition, % at 10 µM, or IC50 in µM where a hit was titrated; 52,000 tested, under 10 active;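 active means IC50 under 40 µM in the dose-response test; inactive means IC50 of 40 µM or more, or never dose-tested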
KRASV12 cytotoxicity – viability loss of HPDE-C7K cells – cell-based, fluorescence, HTS, primary screen (AID 431) | HPDE-C7K KRASV12 cells, Alamar Blue viability, 48 h; higher % means a stronger effect | cytotoxicity, % at 10 µM, or EC50 in µM where a hit was titrated | actives 1.7% (n = 63,000);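 active means compounds whose percent cytotoxicity in the single-dose primary screen, scaled between solvent and toxic-drug controls, exceeds 50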;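 further: 0% = DMSO solvent wells and 100% = doxorubicin-treated wells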
DPM-DC inhibit – blocks S. pneumoniae diphosphomevalonate decarboxylase | purified DPM-DC, PK/LDH coupled NADH fluorescence | calls only at 10 µM | actives 0.49% (n = 65,000);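 active means the 320 compounds with the highest percent inhibition in the single-dose primary screen, excluding strongly autofluorescent ones, cut at about 32% in these data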;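 further: kinetic rate of NADH fluorescence loss reporting ADP formed by the decarboxylase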
Spn PMK inh – inhibitors of Streptococcus pneumoniae phosphomevalonate kinase | actives 0.49% (n = 65,000) | inhibition, % at 10 µM | purified PMK, PK/LDH-coupled NADH absorbance 340 nm;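 active means top-ranked compounds by inhibition in the single 10 µM screen, taking a fixed number of the strongest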;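 further: 0% = full reaction with DMSO carrier and 100% = background rate without enzyme reaction; no value below 0 was filed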
Bfl-1 inhibitors – displacement of Bid BH3 peptide from Bfl-1 – biochemical, fluorescence polarization, FITC-Bid, mouse, primary screen (AID 432) | actives 0.02% (n = 64,000) | FITC-Bid BH3 peptide fluorescence polarization displacement; higher % means a stronger effect | displacement, % at 20 µM, or IC50 in µM where a hit was titrated; in the data active means a potency from the dose series; inactive means the rest, 99 in 100 with displacement below about 15%; further: strong numbers were not always called active
Spn PMK inh pilot replicates – also measured in Spn PMK inh; calls as there; inhibition, %; measured here: pilot screen replicates
DPM-DC inhibit pilot screen % – recorded beside DPM-DC inhibit, whose call it bears; inhibition, %; measured here: pilot screen trials
* = called active by the depositor; i = inactive; · = no result given.

no.	canonical_smiles	LYP phosphatase	KRASV12 cytotoxicity	DPM-DC inhibit	DPM-DC inhibit pilot screen %	Spn PMK inh	Spn PMK inh pilot replicates	Bfl-1 inhibitors
1	CC(C)(C)c1ccccc1OCCN1CCCC1	·	-4%	i	·	2	·	-8%
2	O=C(Nc1cc(N2CCOCC2)ncn1)NC1(C(F)(F)F)Oc2ccc(Cl)cc2O1 (stereo unspecified)	·	31%	i	·	15	·	-10%
3	C[C@](N)(Cc1ccc(O)c(O)c1)C(=O)O	16%	·	·	·	·	·	·
4	O=C(CC(c1ccccc1)c1ccccc1)Nc1ncn[nH]1	-8%	20%	i	·	3	·	-3%
5	C[C@@H]1C[C@H]2[C@@H]3C[C@H](F)C4=CC(=O)C=C[C@]4(C)[C@@]3(F)[C@@H](O)C[C@]2(C)[C@@]1(O)C(=O)CO	22%	6%	i	0.0	3	0.0	-2%
6	CC1(C)CC(=O)c2c(-c3cccs3)n[nH]c2C1	·	-7%	i	·	25	·	3%
7	COc1ccc(OC)c(C(=O)CSc2nc3ncccc3[nH]2)c1	-7%	2%	i	3.5	7	1.5	0%
8	CCOC(=O)N1CCN(Cc2ccccc2F)CC1	·	9%	i	0.0	6	1.5	0%
9	Nc1n[nH]c(-c2ccc(Br)cc2)c1Cl	21%	31%	i	·	3	·	0%
10	Cn1cnc2c1c(=O)[nH]c(=O)n2C	22%	5%	i	1.0	0	0.0	-4%
11	CCOC(=O)C1CCCN(CCC(C)c2ccccc2)C1 (stereo unspecified)	·	20%	i	0.0	2	0.0	-6%
12	CCOC(=O)C1CCN(Cc2coc3ccc(Cl)cc3c2=O)CC1	-1%	-13%	i	·	0	·	-6%

Part of the list above in order of formula weight, high to low:
no.	canonical_smiles	LYP phosphatase	KRASV12 cytotoxicity	DPM-DC inhibit	DPM-DC inhibit pilot screen %	Spn PMK inh	Spn PMK inh pilot replicates	Bfl-1 inhibitors
2	O=C(Nc1cc(N2CCOCC2)ncn1)NC1(C(F)(F)F)Oc2ccc(Cl)cc2O1 (stereo unspecified)	·	31%	i	·	15	·	-10%
5	C[C@@H]1C[C@H]2[C@@H]3C[C@H](F)C4=CC(=O)C=C[C@]4(C)[C@@]3(F)[C@@H](O)C[C@]2(C)[C@@]1(O)C(=O)CO	22%	6%	i	0.0	3	0.0	-2%
12	CCOC(=O)C1CCN(Cc2coc3ccc(Cl)cc3c2=O)CC1	-1%	-13%	i	·	0	·	-6%
7	COc1ccc(OC)c(C(=O)CSc2nc3ncccc3[nH]2)c1	-7%	2%	i	3.5	7	1.5	0%
4	O=C(CC(c1ccccc1)c1ccccc1)Nc1ncn[nH]1	-8%	20%	i	·	3	·	-3%
11	CCOC(=O)C1CCCN(CCC(C)c2ccccc2)C1 (stereo unspecified)	·	20%	i	0.0	2	0.0	-6%
9	Nc1n[nH]c(-c2ccc(Br)cc2)c1Cl	21%	31%	i	·	3	·	0%
8	CCOC(=O)N1CCN(Cc2ccccc2F)CC1	·	9%	i	0.0	6	1.5	0%
3	C[C@](N)(Cc1ccc(O)c(O)c1)C(=O)O	16%	·	·	·	·	·	·

Not all compounds are listed (hit frequency here may not be typical).
